High-throughput results: PubChem, several laboratories
Env fusion inh – inhibitors of HIV Env-mediated cell fusion. 1.1% of 360,000 active. HeLa-JRFL Env/CEM21 cell fusion, luciferase. inhibition, % at 12.3 µM;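 active = mean replicate inhibition score of at least 50 and every replicate individually at or above 50; inconclusive = only one of the two criteria met; inactive = mean below 50 and not all replicates reaching 50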;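 note: 0% = plate neutral controls and 100% = maraviroc near 300 nM; one replicate is shown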
Rce1 inhib – yeast Ras-converting enzyme inhibition; 0.27% of 290,000 active; yeast membranes, quenched prenylated peptide cleavage fluorescence; calls only; AID 2563;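 active = fall in fluorescence gain of 50% or more versus controls, with final raw signal at or below 3038400; inconclusive = same 50% fall but final raw signal above 3038400; inactive = fall in fluorescence gain under 50%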;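 note: plate controls were neutral control wells for no effect and wells lacking membranes for full effect; tested at 10 µM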
Target sequence (Q03530 whole entry, looked up): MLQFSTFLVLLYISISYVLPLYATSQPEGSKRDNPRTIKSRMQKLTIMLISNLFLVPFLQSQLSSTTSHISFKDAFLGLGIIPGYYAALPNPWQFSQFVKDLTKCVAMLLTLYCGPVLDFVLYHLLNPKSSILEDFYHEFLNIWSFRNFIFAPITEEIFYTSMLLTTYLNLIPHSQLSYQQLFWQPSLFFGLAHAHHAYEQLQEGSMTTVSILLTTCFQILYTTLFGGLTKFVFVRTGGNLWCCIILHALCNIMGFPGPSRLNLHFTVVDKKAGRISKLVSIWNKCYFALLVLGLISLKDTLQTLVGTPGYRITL
CSC inhib – blocks cancer stem cells. inhibition, % at 7.5 µM. AID 2717. cancer stem cell-like cells viability, luminescence. 1.1% of 300,000 active;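 active = mean at 75% or more and at least half the replicates too; inconclusive = mean and replicates disagree; tested in HMLE shEcad cells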;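 note: 0% = median of negative and 100% = median of positive control wells; the first replicate is given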
Yeast UUG start – alters start codon recognition fidelity in yeast. S. cerevisiae UUG-firefly luciferase reporter, luminescence/redox ratio. activity score, % at 18.7 µM. 0.13% of 350,000 active;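 active = replicate mean at a twofold rise or more, about +100% in these data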;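 note: firefly luciferase made from a UUG start codon reports start codon fidelity; reporter light over untreated wells divided by growth signal over untreated wells; some hits fall short of that in this replicate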
PABP polyA inh – PABP-poly(A) binding inhibition; inhibition, % at 35 µM; P11940; 1% of 290,000 active; PABP-poly(A) RNA binding, fluorescence polarization; AID 2014;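 active = 50% or more with normal probe brightness, or confirmed in later tests; inconclusive = above 50% with abnormal brightness, or retests that disagree; inactive = below 50% or failed in later tests; about a fifth of its hits are not listed in these tables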;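 note: calls also rest on retests at 20 µM and on dose response follow-up; controls were probe without protein and protein plus probe with vehicle; some compounds called inactive have numbers as strong as hits; many hits fall short of the cut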
MT1-MMP act inh – MT1-MMP (human) activation inhibition; P50281; HT1080 RFP-PRO-GFP cells, GFP/RFP ratio fluorescence, overnight; percent of plate control window, DMSO zero; GFP/RFP ratio change, % at 20 µM; 0.061% of 360,000 active; AID 651647;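 active = GFP/RFP ratio change of at least 30% with cell ATP level not reduced by more than half and red fluorescence within 50% of control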; note: strong numbers were not always called active
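Assay system – RFP-PRO-GFP reporter HT1080 cells · Compound dosing – single dose of 20 µM compound, 1% DMSO final · Incubation – overnight compound exposure at 37 °C · Measure – GFP/RFP fluorescence ratio · Benchmarks – DMSO wells and RFP-L50D-GFP cells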
eIF4H inh – inhibitors of RNA binding by human eIF4H; eIF4H fluorescence polarization binding assay; inhibition, % at 35 µM; 0.94% of 290,000 active; AID 2012;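 active = 50% or more with normal probe brightness, or confirmed in later tests; inconclusive = above 50% with abnormal brightness, or retests that disagree; inactive = below 50% or failed in later tests; about a fifth of its hits are not listed in these tables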;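 note: calls also rest on retests at 20 µM and on dose response follow-up; 0% = protein and probe with vehicle and 100% = probe without protein; strong numbers were not always called active; many hits fall short of the cut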
MT1-MMP act inh RFP – further read-out of MT1-MMP act inh, marked with its call; RFP signal change, %; measured here: RFP expression control read;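 0 = vehicle wells; hits needed this value within 50% of zero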
* hit, by the source's call; i = inactive; ? = inconclusive; nt = not tested or not shown. A portion of the library. The share of hits here may be higher or lower than overall.

Structure	Env fusion inh	Rce1 inhib	CSC inhib	Yeast UUG start	PABP polyA inh	MT1-MMP act inh	MT1-MMP act inh RFP	eIF4H inh
Cc1nc(C(=O)Nc2ccc(Cl)cc2)nn1-c1ccc([N+](=O)[O-])cc1	13.6	i	-12.9	-15.8	-10.2	5.3	-1.0	-6.8
CN(CC(=O)Nc1cccc(F)c1)C(=O)c1cccnc1Sc1ccccc1	3.2	i	-12.0	nt	nt	2.6	4.3	nt
COc1cc(C)nc(Nc2nc(C)c(C(C)=O)s2)n1	-220.6	i	2.1	-8.7	-1.3	1.7	-2.9	-4.8
CN(C(=O)c1ccc(NC(=O)Cc2cccc(NC(=O)C3CCCN(C(=O)C4CCCC4)C3)c2)cc1)C1CCCC1 (centres undefined)	26.0	nt	10.1	-10.1	nt	4.0	-3.7	nt
Fc1ccc(COc2ccc(-c3nnco3)cc2)c(Cl)c1	-41.0	nt	0.3	-11.9	1.0	2.4	2.1	-6.2
CCOc1ccccc1N(CC(=O)Nc1cccc(OC)c1)S(=O)(=O)c1ccccc1	15.8	i	-8.6	-11.7	6.8	-1.6	-6.0	3.6
COc1ccc2c(c1)nc(NCCCO)n2Cc1ccccc1	-1.0	i	9.8	-6.6	3.3	1.1	3.9	7.6
Cc1oc(-c2ccccc2)cc1C(=O)NCc1ccncc1	-1.6	i	-3.9	nt	-5.3	3.9	1.6	-8.1
COc1cc(NC(=O)c2cccc([N+](=O)[O-])c2)ccc1NC(=O)c1cc2ccccc2o1	-2.5	i	4.2	-17.7	-0.2	1.2	2.1	-14.5
CON(C)C(=O)CCC1CCCN1C(=O)OC(C)(C)C (centres undefined)	nt	nt	-20.0	5.6	nt	1.3	3.7	nt
Cc1ccc(-n2c(-c3cnccn3)n[nH]c2=S)c(Br)c1	0.7	i	-17.7	nt	-5.9	3.9	4.1	-7.0
CCN1CCN(c2ncnc3c2cnn3-c2ccc(C)cc2C)CC1	2.1	i	-16.5	-22.6	8.5	-0.2	-2.0	11.2
CC1(C)CC(CCN(Cc2ccccc2)C(=O)c2ccco2)(c2ccccc2)CCO1 (centres undefined)	22.1	nt	20.8	-25.0	-4.7	-9.5	-7.9	4.8
COc1ccc(-c2csc3ncnc(N4CCN(c5ccccc5[N+](=O)[O-])CC4)c23)cc1	nt	i	2.3	-8.1	0.0	-2.9	-12.0	-3.3
CC(NC(=O)C(=O)N1CCCCC1)C(c1cccs1)N1CCN(C)CC1 (centres undefined)	-6.4	i	7.6	-8.5	9.6	-7.5	0.6	1.1
CC(C)(C)NC(=O)NC(=O)CSc1nnc(COc2ccccc2Cl)o1	nt	i	-2.2	-1.4	-2.7	3.4	5.1	-0.5
Cc1ccc(C(C)C)c(OCC(=O)NNC(=O)Nc2ccccc2)c1	9.1	i	-5.3	nt	nt	-2.4	-9.3	nt
Cc1nnc(Nc2ccc3c(c2)ncn3C)c2ccccc12	-31.5	i	-1.5	-21.7	-4.8	-4.1	0.3	-10.7
O=C(CSc1nnc(CNC(=O)c2ccccc2F)o1)c1ccc(Cl)cc1	-6.8	i	-8.4	-36.4	-5.0	0.5	1.0	-7.7
Cc1cccc(NC(=O)CNC(=O)CSc2nc(N)cc(N)n2)c1C	-2.2	nt	nt	-24.2	nt	2.4	6.6	nt
CS(=O)(=O)c1nncn1-c1ccccc1	3.2	i	1.9	-5.5	-3.8	-0.4	-1.9	-9.2
N#C/C(=C/Nc1ccccc1)c1ccsc1	nt	i	3.0	-6.8	2.3	4.1	-3.4	0.3
Cn1ncc(Cl)c1C(=O)N1CCN(C(=O)c2ccco2)CC1	8.1	i	nt	nt	-9.0	0.7	3.5	2.0
Cn1c(NC(=O)C2CCCO2)cc(=O)n(C)c1=O (centres undefined)	nt	i	-13.3	-16.5	5.5	-3.2	-0.2	-6.4
O=C(OCC(=O)c1c[nH]c2ccccc12)c1ccc([N+](=O)[O-])s1	3.8	i	-0.4	-3.3	-9.5	-3.7	-1.7	-1.6
O=C(c1ccc(F)cc1)c1c[nH]c(C(=O)NCCCN2CCOCC2)c1	-3.6	i	-9.9	-14.2	-0.9	5.3	3.4	-7.6
CC1(Cc2ccc(Cl)cc2)C(=O)Nc2ccc(-c3ccc(F)c(Cl)c3)cc21 (centres undefined)	17.5	nt	nt	-5.9	nt	-0.5	-1.9	nt
O=C(NCCN1CCOCC1)c1ccc2c(c1)ncn2C1CCCC1	21.2	i	5.1	-26.7	-7.7	1.6	7.8	-4.0
Cc1cc(SCC(=O)OCC(=O)NC(C)c2ccccc2)c(C)cc1Br (centres undefined)	-7.7	i	3.8	nt	-0.3	2.0	2.4	2.1
Cc1ccc(O)c(NC(=O)c2cc([N+](=O)[O-])ccc2Cl)c1	3.3	i	20.8	nt	1.7	2.6	-8.7	-15.9
CC(C)(C)NC(=O)C(c1ccccc1)N(C(=O)C1CSC(=O)C1)c1ccccc1 (centres undefined)	64.7*	i	-2.8	-17.3	3.5	-1.8	-1.7	0.1
O=C(O)C(=O)/C(=C\c1cccc2ccccc12)c1ccc2ccccc2n1	-39.5	i	-24.3	-21.4	91.3*	-18.9	-5.0	67.0*
COC(=O)C1=CN(Cc2ccc(OC)c(OC)c2)C=C(C(=O)OC)C1c1ccccc1F	-5.7	i	-3.0	-4.5	0.2	0.0	2.1	-4.2
COc1ccccc1NC(=O)Nc1nc(CC(=O)NCc2ccc(F)cc2)cs1	4.0	i	-6.5	-10.3	nt	1.9	-8.9	nt
Cc1ccc(C(=O)N2CCOCC2)cc1Cl	3.5	i	-12.5	-47.1	4.0	1.1	2.2	2.6
Cc1cccc(-c2noc(-c3ccno3)n2)c1	-31.5	i	-2.7	nt	0.1	9.5	-0.6	-1.4

Arranged by count of non-hydrogen atoms (ascending): part of the list above
Structure	Env fusion inh	Rce1 inhib	CSC inhib	Yeast UUG start	PABP polyA inh	MT1-MMP act inh	MT1-MMP act inh RFP	eIF4H inh
O=C(OCC(=O)c1c[nH]c2ccccc12)c1ccc([N+](=O)[O-])s1	3.8	i	-0.4	-3.3	-9.5	-3.7	-1.7	-1.6
O=C(NCCN1CCOCC1)c1ccc2c(c1)ncn2C1CCCC1	21.2	i	5.1	-26.7	-7.7	1.6	7.8	-4.0
Cc1cc(SCC(=O)OCC(=O)NC(C)c2ccccc2)c(C)cc1Br (centres undefined)	-7.7	i	3.8	nt	-0.3	2.0	2.4	2.1

Additional compounds:
Structure	Env fusion inh	Rce1 inhib	CSC inhib	Yeast UUG start	PABP polyA inh	MT1-MMP act inh	MT1-MMP act inh RFP	eIF4H inh
COc1ccc([N+](=O)[O-])cc1NCc1cccc([N+](=O)[O-])c1	7.2	nt	35.9	nt	-2.8	0.5	-3.4	2.1
Cc1ccc(/C=N/NC(=O)c2csc3c2CCCC3)cc1	nt	i	58.9	nt	-1.9	5.1	-9.9	-2.6
CCCCn1c(N)c(C(=S)NC(=O)CC(C)C)c(=O)n(C)c1=O	nt	nt	nt	-8.3	3.2	0.1	0.6	6.2
O=[N+]([O-])c1cnc(Nc2ccc(Cl)cn2)c([N+](=O)[O-])c1	-8.8	i	7.7	-8.7	5.5	5.5	-0.8	5.8
O=C(CN1CCN(c2ccccn2)CC1)Nc1ccccc1Br	-8.9	i	-5.4	-18.9	-1.7	1.6	-1.0	4.7
COCCCn1c(C(=O)NCCN2CCOCC2)cc2c(=O)n3ccccc3nc21	8.9	i	-3.7	-30.4	-4.9	3.0	5.2	-5.1
CSc1ccc(OC2CCCCC2NS(=O)(=O)c2ccc(Cl)cc2)cc1 (centres undefined)	9.9	?	nt	nt	-3.4	-2.5	-8.6	-6.6
O=C(COc1ccccc1)Nc1ccccc1F	-52.0	i	-13.6	-18.0	2.6	0.7	-0.8	1.6
COc1ccc(-c2nnc(SCC(=O)NC(=O)NCc3ccccc3)o2)cc1	nt	i	-3.8	nt	-15.5	-1.1	-2.6	-0.3
Cc1c(/C=N/O)c2ccccn2c1C=O	-3.6	i	-8.9	nt	-8.7	-4.4	-5.2	-6.8
CCOC(=O)N1CCN(C(=O)CSCC(=O)N=c2sc3cc(OC)ccc3n2C)CC1	10.6	nt	nt	0.1	nt	0.1	0.1	nt
NC(=O)C1CCN(C(=O)c2ccc3nc(-c4ccccc4)c(-c4ccccc4)nc3c2)CC1	9.9	i	-11.2	6.7	-6.5	-2.6	-3.3	-10.6

Among those listed so far, these have two or more sulfur atoms:
Structure	Env fusion inh	Rce1 inhib	CSC inhib	Yeast UUG start	PABP polyA inh	MT1-MMP act inh	MT1-MMP act inh RFP	eIF4H inh
CSc1ccc(OC2CCCCC2NS(=O)(=O)c2ccc(Cl)cc2)cc1 (centres undefined)	9.9	?	nt	nt	-3.4	-2.5	-8.6	-6.6
CCOC(=O)N1CCN(C(=O)CSCC(=O)N=c2sc3cc(OC)ccc3n2C)CC1	10.6	nt	nt	0.1	nt	0.1	0.1	nt

More entries follow:
Structure	Env fusion inh	Rce1 inhib	CSC inhib	Yeast UUG start	PABP polyA inh	MT1-MMP act inh	MT1-MMP act inh RFP	eIF4H inh
COc1ccc(NC(C)C(=O)N/N=C/c2c(O)ccc3ccccc23)cc1 (centres undefined)	13.9	i	6.7	-7.1	-8.0	-5.9	-3.9	-2.2
c1cncc(CN=C2Nc3ccccc3CS2)c1	-2.1	i	-9.4	nt	-6.0	3.3	1.7	-1.8
COc1ccc(CCNC(=O)Cc2ccc3c(c2)OCO3)cc1OC	-57.3	i	-18.8	-6.9	16.6	-3.4	-7.0	-12.3
CC(NC(=O)c1ccncc1)c1ccc(Br)cc1 (centres undefined)	-8.6	i	5.0	-8.2	nt	-4.6	-5.0	nt
COc1cccc(NC(=O)C2CCN(S(=O)(=O)c3ccc4[nH]c(=O)ccc4c3)CC2)c1	6.2	i	3.5	-18.3	-3.1	0.8	-1.0	-1.1
COc1ccc(OCC(O)CNc2ccc(Br)cc2)cc1 (centres undefined)	-37.9	i	12.3	nt	8.0	3.9	3.4	0.7
COc1ccc(COC(=O)c2ccc(N3CCCC3=O)cc2)cc1F	2.2	i	0.3	-5.2	4.1	5.5	3.5	3.2
COc1cccc(NS(=O)(=O)c2ccc3[nH]cc(C(=O)NCCCOC(C)C)c(=O)c3c2)c1	nt	i	14.1	0.1	-3.1	4.3	-14.8	2.9
COC(=O)/C(=C1\Oc2ccc(C(C)(C)C)cc2S1)C(F)(F)F	-32.0	i	16.4	-22.1	7.5	3.7	0.3	0.1
COC(=O)c1ccc2nc(-c3ccccc3)c(Cc3ccsc3)n2c1	2.7	nt	nt	1.4	nt	-3.3	-3.8	nt
O=C(Nc1cccc(O)c1)c1cc(-c2ccc3c(c2)OCO3)on1	-20.3	i	68.3	-14.0	-6.2	-0.7	-3.3	0.0
COc1cccc(NC(=O)CSc2nc3ccccc3c3nc4ccccc4n23)c1	-227.0	i	7.4	-8.7	-3.9	-0.1	3.7	-2.2
CN(CC(=O)NCc1cccnc1)S(=O)(=O)c1ccc(F)cc1	11.2	i	-14.3	-16.5	7.2	-0.9	-0.3	-10.3
N=c1sccn1CC(=O)Nc1ccc(Cl)c(S(=O)(=O)N2CCOCC2)c1	nt	i	-8.3	-14.3	11.3	2.2	3.8	-1.4
Cc1cc(Cl)nc(SCC(=O)c2ccccc2)n1	-13.0	i	9.3	-6.1	-3.4	-2.9	2.6	-7.6
Cc1cc(C)cc(N2C(=O)c3nccnc3C2=O)c1	-9.6	i	-7.6	2.6	8.5	-1.8	5.9	7.6
CCOC(=O)c1ccc(NC(=O)CSCCC(=O)O)cc1	-1.2	i	-8.6	-6.3	0.8	-3.9	-1.8	1.9
